MLL AF4-AF9 inh – blocks AF4 peptide binding to human AF9 | P42568 | AlphaScreen, biotin-AF4 peptide binding to FLAG-AF9 | inhibition, % at 10 µM | 0.47% of 350,000 active;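 active = every replicate reaching a set inhibition limit, whatever the replicate mean, cut at about 25% in these data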;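 also: 0% = plate neutral control median and 100% = total signal loss; the record names both 10 and 1 µM as test concentration; the first replicate is given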
Target sequence (P42568 whole entry, looked up): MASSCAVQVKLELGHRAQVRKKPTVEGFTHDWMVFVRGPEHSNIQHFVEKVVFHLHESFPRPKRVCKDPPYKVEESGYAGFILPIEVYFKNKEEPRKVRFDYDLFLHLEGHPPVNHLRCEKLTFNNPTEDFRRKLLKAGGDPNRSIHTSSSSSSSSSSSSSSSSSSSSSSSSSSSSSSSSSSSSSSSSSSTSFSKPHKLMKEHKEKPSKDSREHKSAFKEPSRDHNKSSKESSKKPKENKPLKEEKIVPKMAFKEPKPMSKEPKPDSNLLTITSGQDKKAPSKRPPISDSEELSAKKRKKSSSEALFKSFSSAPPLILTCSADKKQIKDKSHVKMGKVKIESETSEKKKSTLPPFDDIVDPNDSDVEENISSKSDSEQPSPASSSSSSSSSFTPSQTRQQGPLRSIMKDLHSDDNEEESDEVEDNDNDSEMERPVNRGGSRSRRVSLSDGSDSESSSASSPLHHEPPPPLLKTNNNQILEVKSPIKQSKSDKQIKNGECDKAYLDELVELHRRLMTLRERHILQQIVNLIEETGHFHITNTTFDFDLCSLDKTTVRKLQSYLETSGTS
Vif TR-FRET – inhibitors of Vif binding to APOBEC3G peptide, primary screen, biochemical, TR-FRET, GST-Vif 1-94, biotin-A3G peptide, dose response retest (AID 1117319); TR-FRET GST-Vif / biotin-A3G peptide binding; higher % means a stronger effect; test concentration not given here; strong numbers were not always called active; inhibition, %, or IC50 in µM where a hit was titrated; 0.57% of 260,000 active;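 active = above the screen mean plus three standard deviations and confirmed in dose response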;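 also: Vif residues 1-94 fused to GST binding biotinylated APOBEC3G peptide 110-148; 0% = full assay without inhibitor and 100% = GST in place of GST-Vif; retest series ran down from 100 µM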
Ecoli rRNA inh – inhibits bacterial ribosomal RNA function over humanized ribosomes; E. coli WT GFP vs humanized-ribosome RFP mutants, fluorescence, 24 h; stronger effect = lower value; DMSO median 0, no signal -100; GFP signal change (wild-type ribosome), % (test concentration not listed); 1.6% of 350,000 active;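 active = significant combined selectivity score with lowered wild-type GFP, culture density cut under 30%, mutant RFP and density less affected; inactive = any of these conditions unmet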; also: one replicate is shown; some compounds called inactive have numbers as strong as hits
Ecoli rRNA inh OD600 – further read-out of Ecoli rRNA inh, marked with its call; OD600 change, %; measured here: OD600 growth;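 optical density of the mix in the first replicate; 0 = DMSO median and -100 = no signal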
Ecoli rRNA inh RFP – also measured in Ecoli rRNA inh; calls as there; RFP signal change, %; measured here: RFP humanized mutant strains;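 first replicate; 0 = DMSO median and -100 = no signal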
Starred values were filed as active, the others as inactive. An excerpt. The share of hits here may be higher or lower than overall.

`COC(=O)C1=C(c2ccc(OCc3ccccc3)cc2)C[C@@H]2CC[C@H]1N2C(=O)NCc1ccc(F)cc1` gave MLL AF4-AF9 inh 2.0, Vif TR-FRET -2%, Ecoli rRNA inh -2, Ecoli rRNA inh OD600 3 and Ecoli rRNA inh RFP -2.9.
For COc1ccc(CN2CCN(C(=O)Cc3ccccc3)CC2)cc1OC the results were MLL AF4-AF9 inh -1.3, Vif TR-FRET 2%, Ecoli rRNA inh 4, Ecoli rRNA inh OD600 5 and Ecoli rRNA inh RFP -1.2.
C=Cc1cc(OC)c2c(c1)c(=O)oc1c2cc(OC)c2c(O)ccc(C3OC(C)C(O)C(C)(O)C3O)c21 (stereo unspecified) was read as MLL AF4-AF9 inh -4.3, Vif TR-FRET 7%, Ecoli rRNA inh 13, Ecoli rRNA inh OD600 10 and Ecoli rRNA inh RFP 37.
Screening O=[N+]([O-])c1[nH]cnc1Br returned MLL AF4-AF9 inh -1.9, Vif TR-FRET -2%, Ecoli rRNA inh -17, Ecoli rRNA inh OD600 11 and Ecoli rRNA inh RFP 21.
For CCN(CCCl)c1cc(CN(C)C)cc(NC(=O)c2ccc(C(=O)Nc3cc(CN(C)C)cc(N(CC)CCCl)c3)cc2)c1 the results were MLL AF4-AF9 inh 70*, Vif TR-FRET 6%, Ecoli rRNA inh -34, Ecoli rRNA inh OD600 -51 and Ecoli rRNA inh RFP -1.8.
Screening CN=C1CN(O)C(c2ccccc2)c2cc(Cl)ccc2N1 (stereo unspecified) returned MLL AF4-AF9 inh 0.4, Vif TR-FRET 1%, Ecoli rRNA inh 0, Ecoli rRNA inh OD600 -1 and Ecoli rRNA inh RFP 7.6.

An excerpt from above in order of molecular weight, lowest first:
Screening CN=C1CN(O)C(c2ccccc2)c2cc(Cl)ccc2N1 (stereo unspecified) returned MLL AF4-AF9 inh 0.4, Vif TR-FRET 1%, Ecoli rRNA inh 0, Ecoli rRNA inh OD600 -1 and Ecoli rRNA inh RFP 7.6.
For COc1ccc(CN2CCN(C(=O)Cc3ccccc3)CC2)cc1OC the results were MLL AF4-AF9 inh -1.3, Vif TR-FRET 2%, Ecoli rRNA inh 4, Ecoli rRNA inh OD600 5 and Ecoli rRNA inh RFP -1.2.
`COC(=O)C1=C(c2ccc(OCc3ccccc3)cc2)C[C@@H]2CC[C@H]1N2C(=O)NCc1ccc(F)cc1` gave MLL AF4-AF9 inh 2.0, Vif TR-FRET -2%, Ecoli rRNA inh -2, Ecoli rRNA inh OD600 3 and Ecoli rRNA inh RFP -2.9.

Among those listed so far, 2 have a Cl atom:
For CCN(CCCl)c1cc(CN(C)C)cc(NC(=O)c2ccc(C(=O)Nc3cc(CN(C)C)cc(N(CC)CCCl)c3)cc2)c1 the results were MLL AF4-AF9 inh 70*, Vif TR-FRET 6%, Ecoli rRNA inh -34, Ecoli rRNA inh OD600 -51 and Ecoli rRNA inh RFP -1.8.
Screening CN=C1CN(O)C(c2ccccc2)c2cc(Cl)ccc2N1 (stereo unspecified) returned MLL AF4-AF9 inh 0.4, Vif TR-FRET 1%, Ecoli rRNA inh 0, Ecoli rRNA inh OD600 -1 and Ecoli rRNA inh RFP 7.6.
